Source: PubChem
Sa ugtP lethal: compounds lethal to S. aureus RN4220 ugtP deletion mutant; AID 1259309; actives 0.54% (n = 330,000); growth inhibition, % (test concentration not listed); OD600 growth, 16 h; some inactives read as strong as hits;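 active = z-score under -3 and OD600 up to 0.15 on both plates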;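 note: plate controls were untreated wells for no effect and antibiotic for full effect; wells of about 80 µL received 100 nL stock; the first replicate is given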
Mtb hypoxia rep: reduces hypoxia-regulated biosensor signal in M. tuberculosis; fluorescence inhibition, % (test concentration not listed); AID 1159583; M. tuberculosis hypoxia-regulated fluorescent reporter, fluorescence; actives 0.1% (n = 300,000);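 active = 35 to 45% if threefold the growth effect, above 45% if 1.5-fold the growth effect; inactive = the rest, general growth blockers included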;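 note: wells of about 50 µL received 100 nL stock; 0% = vehicle wells and 100% = reference inhibitor wells; whole bacteria with a GFP reporter of the hypoxia response; strong numbers were not always called active; many hits fall short of the cut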
Bead autofluor: counter-screen for toxin protease inhibitors: compound fluorescence | fluorescence intensity (concentration not given with the values) | actives 3.1% (n = 360,000) | compound autofluorescence counterscreen, microsphere flow cytometry; stronger effect = higher value;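 active = at least 3 SD above the mean of all compounds, about 16000 in these data; inconclusive = too few beads counted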;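 note: 100 nL of 1 mM stock went into each well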
PrP 5UTR inh: inhibition of PrP 5' UTR reporter expression | cell-based PrP 5' UTR mRNA reporter, plate reader | inhibition, % (test concentration not listed) | actives 0.35% (n = 340,000);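 active = every replicate at 50% or more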;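 note: 0 = median of the neutral control wells; tested in H4 reporter cells; numbers are from one replicate; inactives centre near -14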
RN4220 kill: kills Staphylococcus aureus RN4220. S. aureus RN4220 growth, OD600, 16 h. inhibition, % (no concentration beside the values). actives 0.33% (n = 330,000). AID 1259311;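 active = z-score of -3 or lower and OD600 up to 0.18 on both plates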;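 note: plate controls were untreated cells for no effect and reference antibiotic for full effect; stock transfer was 100 nL into about 80 µL; one replicate is shown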
BJeLR lethal: kills HRASV12-expressing BJeLR cells; BJeLR (HRASV12) viability, CellTiter-Glo ATP luminescence, 48 h; reference of the scale not given here; inhibition, % (concentration not given with the values); actives 0.17% (n = 300,000); AID 1554;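 active = replicate mean above 50%; inconclusive = above 50% but judged a plate artefact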;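 note: 50 nL library stock added to about 25 µL; numbers are from one replicate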
Mtb hypoxia rep growth: second read-out of Mtb hypoxia rep, no call of its own (marks repeat the call); growth inhibition, %; measured here: M. tuberculosis growth (absorbance);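 0% = vehicle and 100% = reference antibiotic; read after six days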
Active calls of the source: *; ? = inconclusive; · = no result given. An unsorted share of the library, and some 4.1% of all compounds hit somewhere here.

canonical_smiles	Mtb hypoxia rep growth	Mtb hypoxia rep	RN4220 kill	BJeLR lethal	Sa ugtP lethal	PrP 5UTR inh	Bead autofluor
CCCN(CCC)C(=O)Cc1c(-c2ccc(Cl)cc2)nc2c(Cl)cc(Cl)cn12	-1.1	4.9	1.8	·	0.3	-16.6	5374
O=C1c2c(O)cc(O)cc2O[C@H](c2ccc(O)c(O)c2)[C@H]1O	·	·	·	-0.8	·	-5.9	5847
CCc1noc(C)c1C(=O)OCC(=O)N(CCOC)c1c(N)n(Cc2ccccc2)c(=O)[nH]c1=O	-0.5	8.1	5.8	1.4	9.9	-11.0	?
CCCOP(=O)(c1ccc(N(C)C)cc1)C(O)c1cc(OC)c(OC)c(OC)c1 (configuration not stated)	2.7	17.4	6.8	8.2	-1.0	-30.1	9711
O=c1oc(-c2ccccc2Br)nc2ccccc12	8.5	16.1	2.0	2.6	7.4	1.5	3460
Cc1cc([N+](=O)[O-])ccc1NC1CCCC1	4.2	7.9	12.5	-1.1	0.6	-13.3	2801
CCCNC(=O)c1ccc(Cn2cc(C(F)(F)F)ccc2=O)cc1	0.0	4.4	-0.2	-6.3	0.2	-17.4	4615
O=C(CN1C(=O)c2ccccc2S1(=O)=O)c1ccccc1Cl	·	·	·	13.3	·	69.0*	6974
COc1ccc(/C=C/C(=O)Nc2cc(S(=O)(=O)N3CCOCC3)ccc2C)cc1OC	2.5	-4.3	-0.3	-0.5	1.4	-5.8	3124
Cc1cc(NC(=O)COc2coc(CN3CCN(c4ccc(F)cc4)CC3)cc2=O)no1	-2.3	1.4	5.8	2.5	10.7	-13.5	8620
CCOc1ccccc1N(C)C(=O)c1cc2c(=O)n(CC)c3ccccc3c2s1	14.0	13.6	-1.1	-5.1	9.5	·	3097
COc1ccc(/C=N/OC(=O)Nc2ccc(Cl)cc2)c(OC)c1	·	·	·	9.6	·	3.0	?
COc1ccccc1/C=C1\SC(=S)N(NS(=O)(=O)c2ccccc2)C1=O	0.8	9.9	87.5*	0.6	69.7	-11.3	3222
O=C(CCC(=O)Nc1ccccc1)N/N=C/c1ccc2c(c1)OCO2	·	·	·	-6.3	·	-23.5	5745
COc1ccc(-c2c(C#N)c(N)nc3c2CCC3)cc1	5.9	-1.0	6.1	0.8	-1.3	-11.4	4268
COc1ccccc1N1CCN(C(=O)c2ccc(-c3ccccc3)cc2)CC1	8.0	-12.1	13.1	-2.6	0.7	-64.5	3501
O=C(COC(=O)c1ccc(O)cc1)NCCCc1ccccc1	-4.6	-8.3	0.9	-2.0	-4.2	1.9	5025
Cc1ccc(NC(=O)CCCSc2nc3ccccc3[nH]2)cc1	9.6	1.0	-0.3	2.1	-10.7	-15.2	2529
CC1C=CCC2C(=O)N(c3cccc(C(=O)N4CCCCCC4)c3)C(=O)C12 (configuration not stated)	13.1	-6.7	2.8	-11.8	-1.8	-2.1	10650
CCCCS(=O)(=O)/C=C/[C@H]1[C@H](S(=O)(=O)CCCC)[C@H]2C=C[C@@H]1C2	2.6	1.9	2.2	2.1	2.0	-1.5	3810
Cc1cc(C(=O)CCC(=O)N2CCN(S(=O)(=O)c3cccs3)CC2)c(C)s1	5.9	-7.3	7.1	10.7	2.7	-15.8	3555
CCC(CC)C(=O)Nc1c2c(nn1-c1ccc(OC)cc1)CS(=O)C2 (configuration not stated)	·	·	0.5	-1.6	-1.0	-13.7	4936
COC(=O)CSc1cc(C)nc(SC)n1	10.3	2.0	6.7	-6.4	-5.4	-21.0	20467*
C=CCN1C(=O)c2ccccc2Sc2ccc(C(=O)N3CCC4(CC3)OCCO4)cc21	6.8	13.0	3.9	-13.9	6.3	-16.3	7513
Cc1oc(-c2cccc(C(F)(F)F)c2)nc1CN1CCOCC1	9.8	5.7	-1.0	·	-4.7	4.3	4583
COc1ccc(C)cc1NC(=O)c1cc(C2CC2)nc2c1c(C)nn2C1CCS(=O)(=O)C1 (configuration not stated)	4.8	-1.4	3.3	·	3.1	-4.3	5970
CN(CC(=O)Nc1ncn[nH]1)S(=O)(=O)c1ccc(Br)cc1	-4.4	0.9	5.1	-4.0	9.0	-8.1	4310
CCn1c(=O)cc(SCC(=O)NCCCN2CCN(c3ccc(F)cc3)CC2)c2ccccc21	12.6	-5.9	-2.7	17.5	-10.0	1.5	20024*
Cc1ccc(SC(C)C(=O)N2CCCC2)cc1 (configuration not stated)	-1.5	16.3	5.0	-4.4	14.0	-24.8	11537
Cc1ccc(CNC(=O)C(=O)NCC2CCCN2S(=O)(=O)c2cccs2)cc1 (configuration not stated)	·	·	·	14.3	·	1.2	7107

Next part; the last 3 above are carried over.
canonical_smiles	Mtb hypoxia rep growth	Mtb hypoxia rep	RN4220 kill	BJeLR lethal	Sa ugtP lethal	PrP 5UTR inh	Bead autofluor
CCn1c(=O)cc(SCC(=O)NCCCN2CCN(c3ccc(F)cc3)CC2)c2ccccc21	12.6	-5.9	-2.7	17.5	-10.0	1.5	20024*
Cc1ccc(SC(C)C(=O)N2CCCC2)cc1 (configuration not stated)	-1.5	16.3	5.0	-4.4	14.0	-24.8	11537
Cc1ccc(CNC(=O)C(=O)NCC2CCCN2S(=O)(=O)c2cccs2)cc1 (configuration not stated)	·	·	·	14.3	·	1.2	7107
Cc1ccccc1-c1cc2nc(-c3ccc([N+](=O)[O-])cc3)cc(=O)n2[nH]1	3.0	-4.1	-0.8	-1.7	2.5	-24.2	3725
COCCNC(=O)NC(=O)COC(=O)C12CC3CC(CC(NC(C)=O)(C3)C1)C2	·	·	2.6	8.8	-10.5	-9.3	2443
CC(C)Oc1cc(O)c2c(=O)c(-c3ccc(O)cc3)coc2c1	8.0	8.9	-2.0	-2.7	15.3	-106.3	6009
COc1ccc(Cc2nnc(NC(=O)c3ccccc3C)s2)cc1	0.4	8.4	0.4	-1.1	1.1	-1.8	3237
Cc1ccc(-n2c(SCc3cn4ccsc4n3)nc3ccccc3c2=O)cc1	12.2	5.4	-13.7	0.3	-17.0	-19.3	2938
Cc1ccc(-c2nnn(CC(=O)N(c3ccccc3)C(C(=O)NCC3CCCO3)c3ccc(F)cc3)n2)o1 (configuration not stated)	-9.9	1.2	5.4	-2.7	2.5	-10.1	3473
CN1[C@@H]2CC[C@H]1CC(OC(=O)C1C=Nc3ccccc31)C2 (some centres not stated)	·	·	·	-7.2	·	9.0	5744
Cc1c(NC(=O)C2CC=CCC2C(=O)O)c(=O)n(-c2ccccc2)n1C (configuration not stated)	17.0	5.8	-0.1	-0.7	2.7	-21.5	3299
CC(C)CC(NC(=O)c1[nH]cnc1C(=O)NC(Cc1ccccc1)C(=O)OCc1ccccc1)C(=O)OCc1ccccc1 (configuration not stated)	6.8	0.1	5.3	·	2.0	·	·
COc1cc(Cn2nnc3ccccc32)cc(Br)c1O	7.5	14.3	8.4	-11.3	-0.8	-13.8	3288
COc1ccccc1N1CCN(C(=O)/C=C/c2cccs2)CC1	12.4	16.0	3.2	-15.4	3.9	-33.6	2278
CCOC(=O)Cn1c(C)[n+](C)c2cc(Cl)c(Cl)cc21	8.1	5.9	-1.8	3.2	2.2	-21.8	4932
Cc1cc(NC(=O)Cc2ccccc2[N+](=O)[O-])no1	0.0	7.1	1.9	4.1	-1.5	-14.1	3972
COc1ccc(CN(CC(=O)NCc2ccco2)C(=O)CNS(=O)(=O)c2ccc(C)cc2)cc1	6.1	4.7	0.6	-1.3	2.6	-12.9	5827
COc1ccc2oc(-c3ccc(NC(=O)c4ccc(N5CCOCC5)c([N+](=O)[O-])c4)cc3)nc2c1	·	·	·	5.8	·	-39.2	10591
CCc1cc2c(SCC(=O)NC3CC3)ncnc2s1	4.7	9.5	2.1	·	-0.8	-10.3	3883
Cc1cc(NC(=O)COC(=O)CSc2nc3cc(Cl)ccc3n2Cc2ccccc2)no1	·	·	2.3	3.7	-1.5	-10.9	3749
COCCn1c(Cc2ccccc2)nnc1SC(C)C(=O)NC1CC1 (configuration not stated)	4.8	8.7	2.6	·	4.5	-1.5	2888
Cc1ccc(C(CC(=O)N2CCOCC2)c2ccco2)cc1 (configuration not stated)	-0.2	-3.7	4.2	-20.9	-1.7	2.9	3742
Cc1ccc(SC2CCN(C(=O)C3CCC(=O)N(C4CC4)C3)CC2)cc1 (configuration not stated)	5.2	12.4	3.2	6.4	12.1	-20.8	4217
CCOc1cc(OCC)cc(C(=O)NCCCN2CCOCC2)c1	8.5	-1.4	-0.1	2.8	-0.6	-3.0	4238
COc1cc(C2NC(=O)NC(C)=C2C(=O)OCC2CCCO2)ccc1O (configuration not stated)	7.9	9.4	4.0	1.0	0.7	-13.3	11535
Cc1ccc(CC(=S)N2CCOCC2)cc1	4.1	0.2	3.7	-9.9	2.1	-16.2	2131
COc1ccc(N2CC(C(=O)Nc3nnc(SCC(=O)c4ccccc4)s3)CC2=O)cc1 (configuration not stated)	·	·	·	7.5	·	8.2	2336
COc1ccc(-c2nnc(SCC(=O)c3ccc(C)o3)o2)cc1	4.7	6.4	8.2	-4.4	-12.1	-17.3	11246
Cc1ccc(NC(=O)Cc2ccsc2)cc1S(=O)(=O)N1CCOCC1	8.4	12.4	1.8	·	1.2	-32.1	2984
CCOc1ccccc1C1C2=C(COC2=O)Nc2cc3c(cc21)OCO3 (configuration not stated)	5.0	8.2	3.6	41.2	-1.9	64.2*	3645
CC1(c2ccccc2)CC(C)(C)N2C(=O)C(=C3SC(=S)NC3=O)c3cccc1c32 (configuration not stated)	2.6	4.7	100.4*	·	100.1*	·	·
O=S(=O)(N1CCCCC1)N1CCNCC1	2.0	9.6	0.7	-7.0	0.8	-13.7	9992
Cc1cc(C)nc(N/N=C/c2cccc(Cl)c2)n1	·	·	·	-13.2	·	-22.7	3226
O=C(Nc1cccc(F)c1)C1CCN(C(=O)Cc2ccccc2)CC1	9.9	9.6	1.5	2.4	-1.1	-5.6	3315
CCCC(c1nnnn1CCOC)N1CCN(C(=O)c2ccco2)CC1 (configuration not stated)	·	·	-0.4	10.0	2.8	-27.4	2944
CCC(C)NC(=O)c1cc2c(=O)n(CC)c3ccccc3c2s1 (configuration not stated)	15.6	19.1	3.8	5.0	11.0	-13.6	4714
CCc1ccc(C(=O)Cn2ccsc2=N)cc1	9.1	11.9	5.4	9.8	3.1	-23.3	3615
CC(=O)C1=C(C)Nc2ncnn2C1c1cccc(O)c1 (configuration not stated)	9.9	12.9	1.3	-13.3	4.1	-20.6	3702
CCO[C@@H]1OC(C(=O)Nc2ccccc2)=C[C@H](C2CC2)[C@H]1CCCO	·	·	·	-4.2	·	-16.6	3869
O=C(O)C(Cc1ccccc1)N1C(=O)/C(=C/c2cccs2)SC1=S (configuration not stated)	-17.0	-8.9	25.9	·	82.7	-31.6	4079
CC1CN(C(C)CO)C(=O)c2cccc(NC(=O)Nc3ccc4c(c3)OCO4)c2OC1CN(C)C(=O)Nc1ccc(C(F)(F)F)cc1 (configuration not stated)	9.9	6.3	-3.4	·	-12.4	·	·
Nc1nnc(SCc2ccc(F)cc2Cl)s1	13.0	3.3	-1.9	1.8	0.2	-13.2	21708*
O=C(C1=C[C@@H](c2ccc3c(c2)OCO3)C[C@@H](OCCCCO)O1)N1CCOCC1	·	·	·	-4.4	·	-28.7	4081
Cc1nc(C(=O)NC2CCOCC2)sc1C1(C)CC(c2ccccc2)=NO1 (configuration not stated)	-5.2	0.8	5.1	-1.8	2.5	2.2	3556
CC1=Nc2ccccc2N=C(NC(=O)CN2CCN(c3ccc(F)cc3)CC2)C1c1ccccc1 (configuration not stated)	·	·	·	-9.4	·	-57.9	4070
NC(=O)c1ccsc1NC(=O)CS(=O)(=O)c1ccccc1	10.3	3.6	2.6	4.8	4.8	-21.5	6237
